# MARV entry inh = Marburg virus entry inhibition; Marburg virus pseudotyped entry inhibition, cell reporter; control for the full effect not named in the record; about a third of the inactives were read at about 46 µM; AID 540276; 300,000 tested, 1.8% active; Potency, µM (titrated, usually from 37.8 µM), inactives show at the top dose activity change, negative = inhibition, hits mostly inhibitors; active = well fitted inhibition curve with a large enough effect; inconclusive = small, poorly fitted or top-dose-only effect, or effect the other way; inactive = flat fitted curve, though single readings scatter; tested in HEK293 cells; about a fifth of its hits are not listed in these tables; further: on the % scale 0 is the no-effect control and ±100 the full control effect; luciferase read-out
# LASV entry inh = blocks Lassa virus binding to or entry into cells; Potency, µM (titrated, usually from 37.9 µM), without a hit: top-dose activity change, negative = inhibition, hits mostly inhibitors; AID 540256; Lassa virus pseudotype entry inhibition, cell reporter; control for the full effect not named in the record; 300,000 tested, 1.2% active; active means well fitted inhibition curve with a large enough effect; inconclusive means small, poorly fitted or top-dose-only effect, or effect the other way; inactive means flat fitted curve, though single readings scatter; tested in HEK293 cells; further: on the % scale 0 is the no-effect control and ±100 the full control effect; nearly all actives have a fitted effect of over 50% in size; luciferase read-out
# NS1 function inh = inhibitors of influenza NS1 protein function. S. cerevisiae slowed by influenza A NS1, growth recovery by OD600. AID 2326. 270,000 tested, 0.4% active. Potency, µM (highest dose often 46.1 µM), for the others: at the top dose activity, positive = more growth; further: actives are rising curves; nearly all actives have a fitted effect of over 50% in size
#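 Growth recovery, yeast-based: influenza A NS1 expressed in S. cerevisiae causes slow growth, and suppressors are detected by OD600. The parent strain without NS1 is used as positive control.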
# SARS PLP yeast = inhibitors of SARS-CoV papain-like protease in yeast | Potency, µM (series often up to 32.9 µM), for inactives: at the highest dose activity, positive = growth rescue | S. cerevisiae expressing SARS-CoV PLpro, growth rescue; control for the full effect not named in the record | 330,000 tested, 0.19% active; further: 0% is about no effect; nearly all actives have a fitted effect of over 55% in size; growth read by luminescence after 48 h
# RE007 growth inh = less growth of the S. pombe RE007 Vpr strain; 360,000 tested, 0.21% active; Potency, µM (series often up to 92.2 µM), for inactives: at the top dose activity change, negative = less growth; AID 651644; S. pombe RE007 Vpr strain, BacTiter-Glo ATP luminescence, 24 h; control for the full effect not named in the record; active = well fitted falling curve with a large enough effect; inconclusive = small, poorly fitted or top-dose-only effect; inactive = no such curve, though single readings can be large or run the other way;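 further: on the % scale 0 is the no-effect control and ±100 the full control effect; nearly all actives have a fitted effect of over 50% in size; the assay follows cell death caused by Vpr and the record does not say whether a fall means rescue or toxicity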
#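 Fission yeast strain RE007, carrying one chromosomally integrated HIV-1 vpr copy, was seeded at OD 0.01 in PMG+AL medium with 23 nL pinned compound. After 24 h at 30 °C and 99% humidity, viability was read by BacTiter-Glo luminescence.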
# Cruzain inh Det = inhibitors of Trypanosoma cruzi cruzain with detergent. purified cruzain, Z-FR-AMC fluorescence, 0.01% Triton. Potency, µM, for the others: max response, negative = inhibition, usual class: inhibitors. 200,000 tested, 0.43% active. AID 1478; active means well fitted curve in the direction sought with a large enough effect; inconclusive means small, poorly fitted or top-dose-only effect, or another doubt; inactive means no such curve, though single readings can be large; an effect the other way counts as inactive or inconclusive;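 further: plate controls were neutral wells for no effect and buffer without enzyme for full effect; nearly all actives have a fitted effect of over 40% in size; top concentration of the series not given in the record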
# Target sequence (P25779 123-467 limits assumed): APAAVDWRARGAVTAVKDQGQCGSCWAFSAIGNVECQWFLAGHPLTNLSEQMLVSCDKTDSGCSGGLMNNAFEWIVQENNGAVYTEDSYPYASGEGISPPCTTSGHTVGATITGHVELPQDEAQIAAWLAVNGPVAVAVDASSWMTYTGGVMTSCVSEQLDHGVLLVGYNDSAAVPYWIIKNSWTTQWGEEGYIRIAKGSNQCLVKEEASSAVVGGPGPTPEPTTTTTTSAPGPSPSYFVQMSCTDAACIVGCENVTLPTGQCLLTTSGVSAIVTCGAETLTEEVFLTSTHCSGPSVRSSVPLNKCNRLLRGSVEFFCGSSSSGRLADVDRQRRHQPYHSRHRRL
#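 Detergent-containing arm of a paired screen for aggregation-based inhibition: 0.01% Triton X-100 present. Cruzain at 1.5 nM cleaved 2 uM Z-FR-AMC at pH 5.5 with 5 mM DTT; AMC fluorescence gain over 60 s measured activity.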
# Cruzain inh noDet = inhibitors of Trypanosoma cruzi cruzain without detergent. P25779. purified cruzain, Z-FR-AMC fluorescence, no detergent. Potency, µM, for the others: max response, negative = inhibition, most hits filed as inhibitors. 200,000 tested, 2.3% active; active means well fitted curve in the direction sought with a large enough effect; inconclusive means small, poorly fitted or top-dose-only effect, or another doubt; inactive means no such curve, though single readings can be large; an effect the other way counts as inactive or inconclusive;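 further: plate controls were enzyme without inhibitor for no effect and buffer without enzyme for full effect; nearly all actives have a fitted effect of over 40% in size; top concentration of the series not given in the record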
#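 Detergent-free condition (0.00005% Triton X-100) in acetate buffer pH 5.5 with DTT. 1.5 nM enzyme and compound were pre-mixed 15 min, then 2 uM Z-FR-AMC substrate added; reaction progress from fluorescence change between first and third reads (60 s).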
# 2A StopGo = lowers the luciferase signal of an FMDV 2A StopGo reporter. human cells with a luciferase reporter of 2A StopGo recoding; control for the full effect not named in the record. AID 1159524. Potency, µM (series often up to 57.9 µM), for the others: at the top dose signal change, negative = less light. 410,000 tested, 1.2% active; active = well fitted falling curve with a large enough effect; inconclusive = small, poorly fitted or top-dose-only effect; inactive = no such curve, though single readings can be large or run the other way; tested in HEK293T cells; further: on the % scale 0 is the no-effect control and ±100 the full control effect; nearly all actives have a fitted effect of over 45% in size; luciferase light after 4 h
# * marks the source's active call; other numbers are inactive results; ? = inconclusive; / = no result given; [ ] = remark or other dose. Unless noted, the call rests on the fitted dose curve; in most records, active means well fitted rising curve with a large enough effect; inconclusive means small, poorly fitted or top-dose-only effect; inactive means no such curve, though single readings can be large or run the other way. Potency means the concentration at half of the fitted maximal effect.
SMILES	MARV entry inh	LASV entry inh	NS1 function inh	SARS PLP yeast	RE007 growth inh	Cruzain inh Det	Cruzain inh noDet	2A StopGo
CC(=O)O[C@H]1C(=O)[C@@]2(C)C([C@H](OC(=O)c3ccccc3)[C@]3(O)C[C@H](OC(=O)[C@H](O)[C@@H](NC(=O)Cc4ccccc4)c4ccccc4)C(C)=C1C3(C)C)[C@]1(OC(C)=O)CO[C@@H]1C[C@@H]2O (stereo not given in full)	/	/	-20.1%	6.7%	-1.0%	/	/	-16.7%
Cc1c(C(=O)N2CCCCC2)sc(NC(=O)c2ccco2)c1C#N	0.9%	-9.5%	-2.1%	14.3%	-2.1%	-8.8%	-8.4%	3.7%
COc1ccccc1CNC(=O)N1CCN(S(=O)(=O)c2ccc(C)cc2)CC1	6.2%[46.1 µM]	/	-3.8%	1.3%	-14.5%	/	/	0.4%
CCOC(=O)c1cc(C)sc1NC(=O)CSc1nccn1C	28.4%	-12.2%	-19.8%	-5.4%	-6.7%	/	/	0.0%
CCOCCCNC(=O)C(c1ccc(Cl)cc1)N(Cc1ccc2c(c1)OCO2)C(=O)CNC(C)=O (stereo not given)	7.4%[46.1 µM]	/	/	1.3%	8.0%	/	/	-6.0%
CCN(CC)C(=O)c1sc2c(c1C)c(=O)n(-c1ccccc1)c(=O)n2Cc1cc(=O)n2ccccc2n1	/	7.1%[46.1 µM]	/	/	/	1.2%	1.4%	-7.9%
O=C(Nc1cccnc1Cl)c1ccc(Cl)cc1	?	12.8%[46.1 µM]	-3.5%	-6.4%	0.5%	/	/	35.7%[activator]
CCC(=O)N1CCc2cc(S(=O)(=O)N3CCc4ccccc43)ccc21	-4.0%	-1.5%	-4.8%	6.6%	6.3%	-0.7%	22.4%	-15.7%
CCOc1ccc(NC(=O)Cn2c(=O)c(CNc3ccc(CC)cc3)cc3cc4c(cc32)OCO4)cc1	/	?	/	/	/	-3.3%	-4.1%	-5.8%
COc1cc2c(cc1OC)C(c1ccccc1C)CC(=O)N2 (stereo not given)	0.7%[46.1 µM]	-1.7%[46.1 µM]	9.6%	-8.8%	-18.3%	/	/	-14.1%
Cc1ccc(NC(=O)CSc2ncccn2)cc1S(=O)(=O)N1CCCCC1	-15.9%	-5.6%	/	-2.3%	2.0%	/	/	-29.9%
COc1ccc(NC(=O)OC(C)C)cc1	?	?	-6.5%	-2.6%	26.9%	2.3%	4.4%	-9.0%
Cc1ccc(S(=O)(=O)N2CCCCC2C(=O)Nc2nncs2)cc1 (stereo not given)	/	/	1.1%	-1.1%	10.9%	/	/	-2.4%
CCN(CC)CC(O)Cn1c(-c2ccccc2Cl)nc2ccccc21 (stereo not given)	/	/	2.2%	0.4%	-2.8%	/	/	-3.0%
Cc1cccc2nc(-c3ccc(Cl)s3)c(Nc3ccc4c(c3)OCCO4)n12	?	?	/	/	/	-9.6%	?	42.3%[activator]
Cc1nc(-c2ccccc2)sc1C(=O)Nc1ccc(S(N)(=O)=O)cc1	?	-5.0%[46.1 µM]	3.2%	1.2%	-3.2%	/	/	?
Cc1ccc(S(=O)(=O)N[C@H](C(=O)N2CCC(C(=O)N[C@@H](CCC(N)=O)C(=O)O)CC2)C(C)C)cc1	/	/	3.2%	-4.4%	-5.1%	/	/	-4.1%
Cc1cc(N/C=C/C(=O)c2cccc3ccccc23)no1	2.4%	18.7%	-53.3%	-7.1%	-0.2%	-11.9%	7.8%	46.7%[activator]
COc1cccc(Cc2nc3ccccc3nc2SCC(=O)Nc2ccccc2F)c1	/	7.4%[46.1 µM]	/	/	/	1.4%	-17.6%	-3.2%
CCc1nc2ccccc2c(C(=O)OCC(=O)Nc2cccc(S(=O)(=O)NC3=NCCCCC3)c2)c1C	?	22.4µM*	-32.9%	-0.6%	2.0%	/	/	25.1µM*
CCc1ccc(N/C(N)=N/c2nc(CSc3ccccn3)cc(=O)[nH]2)cc1	?	?	3.5%	0.5%	-12.0%	/	/	?
Cc1ccc(NC2=C(CC(=O)O)C(c3ccc(F)cc3)N(c3ccc(C)cc3)C2=O)cc1 (stereo not given)	?	?	/	/	/	-9.5%	-21.6%	1.6%
COc1ccc(C2C(=O)N(C3CCC(C)CC3)CC(=O)N2C2CCCC2)cc1OC (stereo not given)	/	25.0%[46.1 µM]	/	/	/	0.1%	7.2%	-18.2%
CCc1ccc(C(=O)c2cn(CC(=O)Nc3ccc(C)c(C)c3)c3ccccc3c2=O)cc1	?	?	/	/	/	0.2%	7.7%	-0.9%
CN(CC(=O)NCc1ccc(F)cc1)Cc1cccc(Cl)c1	?	-16.1%	-4.7%	-1.0%	-21.8%	/	/	-1.7%
COCC(=O)Nc1cc([N+](=O)[O-])ccc1C	?	?	-11.5%	-12.4%	-17.9%	4.4%	0.2%	0.0%
COc1ccc(S(=O)(=O)N2CCN(C(=O)NCc3ccccc3)CC2)cc1	15.2%[46.1 µM]	20.0%	-4.6%	7.3%	-5.7%	0.4%	6.1%	-12.0%
CCOCCc1nnc(NC(=O)C(=O)c2cc(C)n(-c3ccc(Cl)cc3)c2C)s1	-23.0%[46.1 µM]	-2.6%[46.1 µM]	/	/	/	-10.2%	-19.9%	-3.8%
COc1ccc(NC(=O)COC(=O)CCOc2ccccc2C)cc1Cl	-5.5%[46.1 µM]	7.4%	/	/	-22.6%	/	/	10.1%
COc1c(N2CCN[C@H](C)C2)c(F)cc2c(=O)c(C(=O)O)cn(C3CC3)c12	/	/	-11.1%	-10.2%	2.2%[18.4 µM]	/	/	-15.5%
CCc1ccccc1N(C)C(=O)C1CCCN(c2ncnc3onc(-c4ccc(F)cc4)c23)C1 (stereo not given)	/	-8.7%[46.1 µM]	/	/	/	0.5%	-5.4%	?
CCOC(=O)/C(C#N)=C/c1ccc(OC(=O)c2ccccn2)cc1	19.4%	4.9%	-23.2%	-30.9%	-22.7%	-3.2%	0.0%	2.6%
C=CCNC(=O)c1sc(SC)cc1-c1ccc(Cl)cc1	5.2%	4.6%	-6.1%	-10.5%	-13.1%	-4.8%	4.0%	-15.2%
C=C(C)C(=O)OC1(C(F)(F)F)Oc2cc(C)ccc2NC1=O (stereo not given)	?	-19.6%	-36.7%	-35.4%	-9.7%	6.31µM*	7.94µM*	-29.1%
O=[N+]([O-])c1ccc(O)c(C=Nc2ccc3c(c2)OCCO3)c1	-13.9%	-28.1%	-14.3%	-49.3%	-45.9%	-2.3%	-0.1%	51.3%[activator]
CCOc1ccc(C(=O)N2CCSC2=S)cc1	-11.3%	0.8%	1.5%	-38.1%	0.5%	-6.6%	-5.9%	-21.5%
CCOc1ccc(CNc2ccc3c(c2)ncn3C)cc1	-9.3%	-19.4%	-6.5%	-11.5%	-14.6%	2.3%	-1.5%	26.6%
Cn1cc([N+](=O)[O-])c(C(=O)Nc2ccc3c(c2)OCCO3)n1	?	-6.7%	19.1%	1.0%	-10.5%	5.0%	12.8%	/
COc1ccc(NS(=O)(=O)c2ccc3c(c2)CCN3C(=O)CCC(=O)O)cc1Cl	11.7%[46.1 µM]	29.5%[46.1 µM]	/	/	/	-0.8%	?	24.3%
Cc1n[nH]c(C)c1CCCCOc1ccccc1[N+](=O)[O-]	/	/	-7.6%	-4.5%	31.4%	/	/	?
O=C(CNC(=O)c1ccco1)NCC(=O)OC(C(=O)c1ccccc1)c1ccc(Cl)cc1 (stereo not given)	24.4%	-0.4%	-1.5%	-19.7%	-2.5%	?	-25.9%	-2.2%
Cc1cc(C)nc(SCCC(=O)N(C)C)n1	8.9%	-0.4%	-4.7%	3.2%	6.5%	0.1%	-5.5%	26.4%
Cc1cccc(NC(=O)CCNC(=O)c2ccc(Br)cc2)c1C	?	?	-2.7%	1.5%	-7.7%	/	/	-9.4%
CNC(=O)NC(=S)NC(=O)c1cccc(Cl)c1	7.7%[46.1 µM]	8.7%[46.1 µM]	-3.2%	0.8%	?	/	/	-0.8%
COc1cc2c(C(=O)N3CCN(C4CCCCC4)CC3)cn(CC(C)C)c(=O)c2cc1OC	-17.0%	-9.7%	14.1%	2.9%	7.9%	-3.8%	1.3%	-16.5%
O=C(NCc1ccccc1)C(c1ccc(O)cc1)N(C(=O)Cn1nnc(-c2cccs2)n1)c1ccc2c(c1)OCCO2 (stereo not given)	-9.3%	?	?	11.8%	8.2%	1.2%	?	/
COc1ccccc1OCCn1c(-c2ccc(Cl)cc2)nc2ccccc2c1=O	9.3%[46.1 µM]	20.6%[46.1 µM]	/	/	/	-1.4%	-1.9%	0.0%
CCOC(=O)/C=C(\C)Sc1cc(=O)oc2ccccc12	-28.5%	-16.9%	?	-37.3%	23.2%	-5.7%	0.1%	0.0%
O=C(COc1ccccc1)NCC(c1ccco1)N1CCN(c2ccccc2)CC1 (stereo not given)	-25.0%	-27.4%	/	12.5%	-4.8%	/	/	-20.9%
O=C(COC(=O)C1CCN(S(=O)(=O)c2ccccc2C(F)(F)F)CC1)NCc1ccc(F)cc1	43.6%	0.6%	-18.9%	8.1%	57.0%	-0.3%	?	0.6%
Nc1nsnc1C(=O)NCCO	0.2%	-3.1%	6.5%	3.0%	-9.7%	2.5%	-1.1%	9.1%
COc1ccc(/C=C2/SC(=S)N(NS(=O)(=O)c3ccc(C)cc3)C2=O)cc1	6.5%[46.1 µM]	0.7%	0.5%	-2.2%	-0.3%	/	/	-8.3%
O=C(O)C1C2C=CC(C2)C1C(=O)Nc1cccc(F)c1 (stereo not given)	-3.7%	?	3.1%	4.5%	-16.7%	8.0%	-5.0%	-21.3%
COc1ccc(C(=O)Cn2c(Br)nc3c2c(=O)n(C)c(=O)n3C)cc1OC	-11.4%	10.2%	6.4%	-3.0%	7.0%	-3.6%	-10.0%	-20.5%
O=C(Nc1ccccc1O)c1cc(S(=O)(=O)N2CCCC2)ccc1Cl	/	-28.8%[46.1 µM]	/	/	/	-1.9%	-6.2%	?
CC(C)C[C@H](NC(=O)c1[nH]cnc1C(=O)N[C@@H](C)C(=O)OC(C)(C)C)C(=O)OCc1ccccc1	/	/	-7.8%	-1.0%	18.8%	/	/	?
